High-throughput results (PubChem)
TDP1 cell CPT: growth inhibition of DT40 Tdp1-/-;hTDP1 cells with camptothecin (screen for TDP1 inhibitors) | 420,000 compounds, 12% hits | chicken DT40 Tdp1-/-;hTDP1 cells + 20 nM CPT, ATP luminescence, 48 h | Potency, µM (doses to about 46.2 µM), inactives show top-dose activity change, negative = growth inhibition, most hits filed as inhibitors; further: nearly all actives have a fitted effect of over 55% in size
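Chicken DT40 Tdp1-/- cells stably complemented with human TDP1 were seeded at 400 cells/well in medium containing 20 nM camptothecin, exposed to pin-transferred compounds, and grown at 37 °C for at least 48 hr. Viability was read as ATP luminescence.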
GCN5L2 inh: inhibitors of human GCN5L2 histone acetyltransferase; Q92830; GCN5L2 HAT assay, ThioGlo1 CoA-SH fluorescence; Potency, µM (highest dose often 58.9 µM), without a hit: at the highest dose activity change, negative = inhibition, usual class: inhibitors; 390,000 compounds, 0.21% hits
Target sequence (Q92830 whole entry, looked up): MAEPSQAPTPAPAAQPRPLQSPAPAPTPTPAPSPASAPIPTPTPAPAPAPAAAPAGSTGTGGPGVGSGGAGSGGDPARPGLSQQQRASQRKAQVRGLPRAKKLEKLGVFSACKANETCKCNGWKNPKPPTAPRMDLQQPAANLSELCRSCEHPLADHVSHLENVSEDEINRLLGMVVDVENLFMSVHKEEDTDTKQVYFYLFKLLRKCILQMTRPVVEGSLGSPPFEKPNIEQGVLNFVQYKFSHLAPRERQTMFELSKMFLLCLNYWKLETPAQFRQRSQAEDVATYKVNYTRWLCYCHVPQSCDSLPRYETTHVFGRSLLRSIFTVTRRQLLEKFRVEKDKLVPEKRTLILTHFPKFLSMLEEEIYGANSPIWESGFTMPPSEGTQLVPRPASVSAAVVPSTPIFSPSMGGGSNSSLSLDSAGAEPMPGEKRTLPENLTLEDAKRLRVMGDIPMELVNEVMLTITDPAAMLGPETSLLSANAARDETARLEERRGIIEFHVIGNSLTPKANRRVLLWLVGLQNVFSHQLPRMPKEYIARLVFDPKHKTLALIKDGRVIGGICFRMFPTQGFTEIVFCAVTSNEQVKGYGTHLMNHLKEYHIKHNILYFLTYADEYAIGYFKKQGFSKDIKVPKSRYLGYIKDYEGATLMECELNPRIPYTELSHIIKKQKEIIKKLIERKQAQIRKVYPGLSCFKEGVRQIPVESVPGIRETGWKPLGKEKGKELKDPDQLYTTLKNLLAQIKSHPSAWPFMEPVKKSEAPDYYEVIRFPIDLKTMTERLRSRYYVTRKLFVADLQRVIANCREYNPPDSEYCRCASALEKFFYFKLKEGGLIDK
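Enzyme at 20nM final was mixed with library compounds for 15 min at room temperature. Peptide H3(1-25) at 75uM, acetyl-CoA at 70uM and ThioGlo1 at 50uM were then added. Plates were read immediately and after 20 min (Ex340nm/Em540nm).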
Numbers without * were called inactive; ? = inconclusive; [ ] = another dose, or the depositor's remark. The call rests on the fitted dose curve; in most records, active means well fitted curve in the direction sought with a large enough effect; inconclusive means small, poorly fitted or top-dose-only effect, or another doubt; inactive means no such curve, though single readings can be large; an effect the other way counts as inactive or inconclusive. On the % scale 0 is the no-effect control and ±100 the full control effect; potency means the concentration at half of the fitted maximal effect. A portion of the library; most or all hits stand in other tables.

Fields – TDP1 cell CPT | GCN5L2 inh
[1] Cc1cccc(OCc2nnc(SCC(=O)Nc3cccc(C(=O)N4CCOCC4)c3)o2)c1C
    -5% | -12%
[2] NC(=O)CNC(=O)[C@@H]1CC2(CC(c3cccc([N+](=O)[O-])c3)=NO2)CN1C(=O)c1ccccc1 (stereo partly specified)
    1% | -3%
[3] CCn1c(=O)n(CC(=O)NC2CCCC(C)C2C)c(=O)c2ccccc21 (stereo unspecified)
    ? | -8%
[4] COc1cc(NC(=O)c2c(F)cccc2F)c(Cl)cc1Cl
    24% | -2%
[5] Cc1nc(CCNC(=O)c2ccccc2)cs1
    0% | -29%
[6] COc1ccc(CNc2nc3c(c(=O)[nH]c(=O)n3C)n2Cc2ccccc2C)cc1
    -16% | 3%
[7] CCCCCNc1nc(NCCCO)c(C#N)c2c1CN(C)CC2
    ? | -5%
[8] COc1ccccc1-n1c(SCC(=O)N2CCCCC2)nc2cccnc21
    -4% | -3%
[9] Cc1nc2nc(SCC(=O)O)nn2c(C)c1Cc1ccccc1Cl
    -18% | -5%
[10] Cc1cc(S(=O)(=O)Nc2ccc(C(=O)NCCCN3CCCC3=O)cc2)ccc1F
    4% | 0%
[11] CCn1c(SCc2ccc(C)cc2)nnc1-c1cnccn1
    ? | 2%
[12] Cc1cccc(N2CCN(C(=O)c3ccc(CS(=O)(=O)c4ccccc4C)o3)CC2C)c1 (stereo unspecified)
    ? | -18%
[13] CC(=O)c1ccc(OC(=O)COc2ccccc2)cc1
    4% | -25%
[14] Cn1c(N)c(C(=O)COC(=O)c2cc(S(=O)(=O)N3CCCCC3)ccc2Cl)c(=O)n(C)c1=O
    ? | -1%
[15] CCOC(=O)N1CCN(C(=O)C(C)SCc2ccccc2)CC1 (stereo unspecified)
    -3% | -9%
[16] CCOc1cc(NC(=O)C2CC2)c(OCC)cc1NC(=O)c1cc(OC)c(OC)c(OC)c1
    -9% | -1%
[17] FC(F)(F)c1ccc2c(c1)nc1n2CCCC1
    -1% | -10%
[18] COC(=O)c1ccc(OCCCCN2CC(C)OC(C)C2)cc1 (stereo unspecified)
    4% | -13%
[19] COCCCNC(=S)N1CCN(c2ccc([N+](=O)[O-])cc2)CC1
    16µM* | -9%
[20] Cc1cccc(C)c1NC(=O)C1CCCN(S(=O)(=O)c2c(C)noc2/C=C/N(C)C)C1 (stereo unspecified)
    16µM* | -10%
[21] COC(=O)c1cc(NC(=O)Cn2nc(-c3ccc(C)c(C)c3)ccc2=O)cc(C(=O)OC)c1
    4% | -4%
[22] COc1ccc(C(=O)NC2CCCCC2)cc1S(=O)(=O)N1CCOCC1
    -14% | 0%
[23] CCn1cnc2c1c(=O)n(CC(=O)OC(C)C(N)=O)c(=O)n2Cc1ccccc1 (stereo unspecified)
    -13% | -3%
[24] O=C(O)c1ccc(/C=N/Nc2ncc(Cl)cc2Cl)cc1
    -24% | -10%
[25] N#Cc1c(-c2ccccc2)nc(SCc2ccc([N+](=O)[O-])cc2)[nH]c1=O
    -20% | -11%
[26] Cc1ccc(C(=O)Nc2ccccc2C(=O)O)cc1NC(=O)COc1c(C)cccc1C
    ? | 16%
[27] CC(c1ccccc1)n1cc(C(=O)NCCCn2ccnc2)nn1 (stereo unspecified)
    -5% | 0%
[28] O=C(Nc1ccc(Br)cc1F)c1ccncc1
    -10% | 2%
[29] CCOC(=O)CSc1cc(CS(=O)(=O)c2ccccc2)nc(-c2ccccc2)n1
    -10% | -23%
[30] COc1cccc(NC(=O)CN(C)C(=O)c2ccc(NS(=O)(=O)c3ccc(F)cc3)cc2)c1
    -2% | 0%
[31] O=C(CSc1nc2ccccc2nc1N1CCOCC1)Nc1ccccc1F
    ? | ?
[32] O=C(NCc1cccnc1)c1ccc(-c2ccccc2[N+](=O)[O-])o1
    -26% | -1%
[33] CCOC(=O)c1cnn2cc(-c3[nH]ncc3[N+](=O)[O-])cnc12
    -29% | -3%
[34] C=CCn1c(SCc2csc(C)n2)nc2sc3c(c2c1=O)CCCC3
    ? | -13%
[35] Cc1nc(C(F)(F)F)c(C(=O)NC(=O)Nc2ccc(OC(F)(F)F)cc2)s1
    ? | -22%
[36] Cc1ccccc1NC(=O)C(C)n1c2ccccc2c2nc(=O)cc(C)n21 (stereo unspecified)
    -16% | -12%
[37] O=C(c1ccccc1)n1nc(-c2ccccc2)nc1NCc1ccco1
    -24% | -13%
[38] CCCN=Cc1ccc(O)cc1
    4% | -2%
[39] COc1ccc(S(=O)(=O)N2C3CCC2CC(NC(=O)NC2CCCCC2)C3)cc1 (stereo unspecified)
    ? | -4%
[40] O=C(Nc1c(C(=O)N2CCN(c3ccc(F)cc3)CC2)oc2ccccc12)c1ccco1
    16µM* | ?
[41] O=C(OCCN1CCOCC1)c1cccc(F)c1
    -1% | -4%
[42] CCn1c(CNC(=O)COc2ccc(C(C)C)cc2)nnc1SCC(=O)Nc1ccccc1F
    -12% | -2%
[43] O=C(NC1CC2CCCC(C1)N2C(=O)NC1CCCCC1)c1ccccc1 (stereo unspecified)
    2% | -9%
[44] Cc1cccc(C)c1-n1ncc(C(=O)O)c1C1CCN(C(=O)OC(C)(C)C)CC1
    -1% | -1%
[45] CC(C)OC(=O)C1CC=CCC1C(=O)Nc1ccc(Cl)cc1 (stereo unspecified)
    -25% | 1%
[46] COc1ccccc1N1CCN(C(=O)c2onc(C)c2Cl)CC1
    ? | -27%
[47] C[C@H](NC(=O)[C@@H]1Cc2ccccc2CN1)C(=O)NC[C@H]1CC[C@H](C(=O)O)CC1
    -22% | 5%
[48] COc1ccc(N2CCN(C(=O)Cc3noc4ccc(C)cc34)CC2)cc1
    ? | -4%
[49] CN(CCc1cnn(C)c1)Cc1nc(Cc2ccccc2)no1
    6% | -14%
[50] Cc1cc(=O)oc2cc(OCCSCCN3CCOCC3)ccc12
    -30% | -3%
[51] C[C@@]12C(=O)N(CCO)CC(=O)N1[C@H](/C=C/c1ccccc1)[C@@H]1C(=O)N(c3ccccc3)C(=O)[C@@H]12
    3% | 2%
[52] CCC(=O)c1ccc(OCC(O)CN2C(=O)NC(C)(C)C2=O)cc1 (stereo unspecified)
    14% | -19%
[53] CSc1nc2c(c(=O)[nH]1)C(c1cccs1)C1=C(CCCC1=O)N2 (stereo unspecified)
    2% | -24%
[54] Cc1ccccc1NC(=O)COc1coc(CN2CCN(Cc3ccccc3)CC2)cc1=O
    -23% | -14%
[55] Cc1cc(OCC(=O)NCc2ccncc2)c2c(C)c(C)c(=O)oc2c1
    -12% | -25%
[56] COc1ccc(NC(=O)CCNS(=O)(=O)c2cccc3nonc23)cc1Cl
    -3% | 0%
[57] Cc1ccc(NC(=O)C2C(c3ccccc3)C=CC(c3ccccc3)C2C(=O)O)cc1 (stereo unspecified)
    29µM* | -3%
[58] CCCCN(C(=O)c1c(-c2ccccc2)noc1C)c1c(N)n(CCC)c(=O)[nH]c1=O
    3% | -6%
[59] CCOc1ccccc1OCCOc1cccc(C(F)(F)F)c1
    2% | -9%
[60] O=C(C1CC1)N1CCC(Oc2cccc(C(=O)N3CCCCC3CCO)c2)CC1 (stereo unspecified)
    -26% | -2%

Some of the entries so far, as labelled records:
[60] O=C(C1CC1)N1CCC(Oc2cccc(C(=O)N3CCCCC3CCO)c2)CC1 (stereo unspecified)
  TDP1 cell CPT = -26%	GCN5L2 inh = -2%
[33] CCOC(=O)c1cnn2cc(-c3[nH]ncc3[N+](=O)[O-])cnc12
  TDP1 cell CPT = -29%	GCN5L2 inh = -3%
[42] CCn1c(CNC(=O)COc2ccc(C(C)C)cc2)nnc1SCC(=O)Nc1ccccc1F
  TDP1 cell CPT = -12%	GCN5L2 inh = -2%

Going on with the list.
Fields – TDP1 cell CPT | GCN5L2 inh
[61] Cc1nc(-c2cccnc2)sc1C(=O)N/N=C/c1ccccc1Cl
    -4% | 0%
[62] Clc1ccc(OCc2nn3c(-c4ccco4)nnc3s2)c(Cl)c1
    -27% | ?
[63] CCOC(=O)C1=C(N)Oc2cc(O)ccc2C1c1cccc(Cl)c1 (stereo unspecified)
    ? | -5%
[64] CCN(Cc1ccccc1)S(=O)(=O)CCNC(=O)c1ccccc1
    -1% | 4%
[65] COc1cccc(/C=N/NC(=O)CSc2ccccc2C)c1OC
    4% | -4%
[66] CCn1ccnc1CN(C)C(=O)C1CCC(=O)N(CCc2cccc(F)c2)C1 (stereo unspecified)
    2% | -18%
[67] COc1ccc(CC(=O)NCCc2sc(-c3ccc(Cl)cc3)nc2C)cc1OC
    ? | 0%
[68] COc1ccc(Cl)cc1C(=O)NNC(=S)NC1CCCC1
    ? | -9%
[69] COc1ccc(OC)c(NC(=O)CSc2nc3ccccc3nc2N2CCCCC2)c1
    ? | -10%
[70] CCOc1ccc2oc(=O)cc(CN3CCN(Cc4ccc(F)cc4)CC3)c2c1
    16µM* | -2%
[71] CC1(C)CC(=O)c2c(n(S(=O)(=O)c3ccccc3)c3ccc(NS(=O)(=O)c4ccccc4)cc23)C1
    ? | 53%[activator]
[72] CC1CCN(S(=O)(=O)c2ccc(C(=O)Nc3ccccc3-c3nc4ccccc4[nH]3)cc2)CC1
    ? | 24%
[73] COc1cc(OC)cc(C(=O)NCC(=O)OCC(=O)Nc2ncc(Cl)cc2Cl)c1
    3% | -18%
[74] COc1cccc(OC)c1C(=O)Nc1ccc2c(c1)Cc1ccccc1-2
    -28% | -18%
[75] O=C(C1CC1)N1CCN=C1SCc1cccc(F)c1
    -19% | 1%
[76] Cc1cc(C)n2nc(SCc3cccc(F)c3)nc2n1
    15% | -3%
[77] CC(=O)Nc1ccc(S(=O)(=O)N2CCC(C(=O)NCCC(=O)NCc3ccncc3)CC2)cc1
    -1% | -27%
[78] Cc1ccc(Nc2nnc(SC(C)C(=O)Nc3c(C)n(C)n(-c4ccccc4)c3=O)s2)cc1 (stereo unspecified)
    -18% | 1%
[79] CC(C)CNS(=O)(=O)c1ccc(S(=O)(=O)N2CCC(N3CCCCC3)CC2)cc1
    -4% | -1%
[80] Cc1cc(C)cc(C(=O)NCC(=O)N2CCC3(CC2)NCCc2[nH]cnc23)c1
    11% | ?
[81] CCCN1CCN(CC(=O)Nc2nnc(C)s2)CC1
    -6% | -4%
[82] CC1CN(C(c2cccs2)c2sc3ncnn3c2O)CC(C)O1 (stereo unspecified)
    14% | -2%
[83] Oc1ccccc1-c1n[nH]c(=S)n1Cc1ccco1
    -17% | -2%
[84] CCc1ccc(OCC(=O)NN2Cc3ccccc3C2=N)cc1
    -6% | -4%
[85] COCCn1c(-c2cc(OC)c(OC)c(OC)c2)nc2oc3cc(OC)ccc3c(=O)c2c1=O
    ? | -4%
[86] COc1ccccc1NC(=S)N1CCN(C(=O)c2ccco2)CC1
    -2% | 40%[activator]
[87] CCOC(=O)c1cccc(NC(=O)CSc2nc3ccccc3c(=O)n2CC)c1
    -15% | -5%
[88] Cc1ccc(SCCC(=O)NCCSCc2ccco2)cc1
    -22% | 2%
[89] Cn1c(=O)n(CCC(=O)O)c2ccccc21
    6% | ?
[90] Cc1ccc(NC(=O)CN2C(=O)NC3(CCc4ccccc43)C2=O)cc1 (stereo unspecified)
    -15% | -12%
[91] COc1ccccc1NC(=O)Nc1ccccc1C(N)=O
    ? | -15%
[92] O=C(NCCn1cccc1)c1cccc2ccccc12
    3% | -19%
[93] NNC(=O)C(Cc1ccc(O)cc1)N1Cc2ccccc2C1=O (stereo unspecified)
    1% | 1%
[94] COc1ccccc1CNS(=O)(=O)c1cccs1
    11% | -4%
[95] Cc1c(C(=O)N/N=C/c2ccncc2)nnn1-c1nonc1N
    6% | -6%
[96] CCOCCCNC(=S)N1CCCC(c2nc3ccc(C)cc3[nH]2)C1 (stereo unspecified)
    -27% | ?
[97] COc1ccc2oc(C(=O)OCC(=O)N(C)CC(=O)Nc3ccc(C)cc3)c(C)c2c1
    -1% | 0%
[98] O=S1(=O)N=C(Nc2nc3c(s2)CCCC3)c2ccccc21
    6.5µM* | -7%
[99] Cc1ccc(O)c(C(=O)c2cnn(-c3ccc(S(=O)(=O)N4CCOCC4)cc3[N+](=O)[O-])c2)c1
    1% | -1%
[100] CC(NS(=O)(=O)c1ccc(Cl)cc1)C(c1cccs1)N1CCN(C)CC1 (stereo unspecified)
    -4% | 0%
[101] COC(=O)[C@H](CCSC)NC(=O)Nc1ccc(C)cc1
    0% | 4%
[102] O=C(NC1CCCC1)c1cc(-c2ccc(Cl)c(Cl)c2)on1
    ? | 1%
[103] Cc1cc(NC(=O)c2ccc(N3CCCC3)c([N+](=O)[O-])c2)no1
    0% | -4%
[104] Cc1ccc(S(=O)(=O)N2CCCCC2)cc1NS(=O)(=O)c1cccc(C(=O)O)c1
    2% | 0%
[105] CC(=O)NC(=S)Nc1ccc(NC(=S)NC(=O)c2ccc([N+](=O)[O-])cc2)cc1
    19% | -2%
[106] CC(=O)c1ccc(S(=O)(=O)N2CCN(C(C)C(=O)N(C)Cc3ccccc3)CC2)cc1 (stereo unspecified)
    ? | 1%
[107] Cc1[nH]c2ccccc2c1C(=O)C(C)Sc1nnc(C2CC2)o1 (stereo unspecified)
    -14% | -3%

Complete entries, quoted from the list.
O=C(NC1CCCC1)c1cc(-c2ccc(Cl)c(Cl)c2)on1 as listed: TDP1 cell CPT = ?; GCN5L2 inh = 1%
CC(NS(=O)(=O)c1ccc(Cl)cc1)C(c1cccs1)N1CCN(C)CC1 (stereo unspecified) as listed: TDP1 cell CPT = -4%; GCN5L2 inh = 0%
